Vaccinia mCherry – qHTS for Stage-Specific Inhibitors of Vaccinia Orthopoxvirus: mCherry Reporter Primary qHTS. Vaccinia virus mCherry reporter infection, fluorescence; about a quarter of the inactives have no number. Potency, µM (titrated, usually from 36.5 µM), without a hit: at the top dose activity change, negative = inhibition, hits mostly inhibitors. 310,000 tested, 0.63% active; active = well fitted inhibition curve with a large enough effect; inconclusive = small, poorly fitted or top-dose-only effect; inactive = no such curve, though single readings can be large or run the other way; tested in A549 cells; note: nearly all actives have a fitted effect of over 35% in size; inactives centre near -10
Vaccinia Venus – qHTS for Stage-Specific Inhibitors of Vaccinia Orthopoxvirus: Venus Reporter Primary qHTS | Potency, µM (titrated, usually from 36.5 µM), for the others: at the highest dose activity change, negative = inhibition, actives largely listed as inhibitors | 330,000 tested, 0.46% active | AID 720580, 2013 | Vaccinia virus Venus reporter expression, fluorescence; active means well fitted inhibition curve with a large enough effect; inconclusive means small, poorly fitted or top-dose-only effect; inactive means no such curve, though single readings can be large or run the other way; tested in A549 cells; note: nearly all actives have a fitted effect of over 30% in size; inactives centre near -10
An asterisk follows results filed as active; i = inactive; ? = inconclusive; . = not tested or not shown; & = joins results of further samples; [ ] = dose if it differs, or a comment. % is set by controls: 0 for no effect and ±100 for the full control effect; potency is the fitted concentration of half-maximal effect.

Order of results: Vaccinia mCherry	Vaccinia Venus
> COCCn1nc2cc(C(=O)NCC34CC5CC(CC(C5)C3)C4)ccc2c1OC
→ i	-10%
> CC(=O)c1cnc2c(-c3ccccc3)c(C)nn2c1C
→ -15%	-10%
> CC1C(=O)NN=C1c1ccc([N+](=O)[O-])cc1 (stereo not given)
→ -8%	-18%
> O=C(O)/C=C/C(=O)c1ccc2c(c1)CCc1ccccc1-2
→ ?	?
> COCCN1C(=O)CN(S(C)(=O)=O)CC1(C)C(=O)Nc1c(C)cccc1C (stereo not given)
→ -8%	-3%
> O=C(c1cccc(S(=O)(=O)N2CCc3ccccc3C2)c1)N1CCN(c2ccccc2)CC1
→ -9%	-28%
> COc1ccc(C2=CSC3=NCCN23)cc1[N+](=O)[O-]
→ -3%	0%
> O=C(/C=C/c1ccc(Cl)cc1)N1CCN(c2ccccn2)CC1
→ -10%	-14%
> CCOc1ccc(NC(=O)CSc2nc(-c3cccs3)cc(C(F)(F)F)n2)c([N+](=O)[O-])c1
→ -9%	-2%
> CC(=C1C(=O)c2ccccc2C1=O)N1CCc2ccccc2C1
→ -13%	-2%
> CN=c1scc(-c2ccc(F)cc2)n1/N=C/c1ccc(O)c(O)c1
→ ?	-18%
> Cn1cnnc1SCC(=O)c1cccc([N+](=O)[O-])c1
→ i	-10%
> O=C(CN1CCC(NC(=O)Nc2ccc(F)cc2)CC1)Nc1ccccc1[N+](=O)[O-]
→ -16%	-19%
> Nc1cccc(OCCCCCOc2cccc(N)c2)c1
→ -23%	-28%
> COc1ccc(S(=O)(=O)CC(=O)Nc2ccccc2Cl)cc1
→ -12%	-11%
> CSc1nnc2sc3cc(C)ccc3n12
→ i	-21%
> COC(=O)c1cc(OC)c(OC)cc1NC(=O)CSc1ccc(C)cc1
→ -24%	-10%
> Cc1nc(SCc2ccc([N+](=O)[O-])cc2)n[nH]1
→ -26%	-13%
> COc1cccc(CNC(=O)C(C)n2ncn3cccc3c2=O)c1OC (stereo not given)
→ -13%	-1%
> COc1ccc(C(=O)CSc2nc(C)cc(C)c2C(=O)Nc2ccccc2C)cc1
→ -5%	-5%
> COc1cccc(OCc2nnc3n2N=C(c2ccccc2)C(CC(=O)O)S3)c1 (stereo not given)
→ i	-1%
> CC1CCN(CC(=O)N2CCN(c3ccccc3)CC2)CC1
→ -10%	-1%
> CCOc1cccc(-c2cc(N3CCN(CCO)CC3)n3nccc3n2)c1
→ i	-2%
> CCN1CCCC1CNC(=O)C(=O)NC1CC1 (stereo not given)
→ i	-5%
> COc1ccc([C@@H]2CC=C(C(=O)O)[C@H](c3ccccc3)N2S(=O)(=O)c2ccccc2C)cc1
→ i	-3%
> CSCC[C@H](NC(=O)OC(C)(C)C)c1nnc(SCc2ccccc2)o1
→ .	?
> CCOC1=C2[C@H](c3ccc(CC)cc3)N(S(=O)(=O)c3ccc(C)cc3)C[C@H]2n2c(=O)n(-c3ccccc3)c(=O)n2C1
→ 11%	-1%
> CC(C)c1nc(SCC(=O)N2CC(=O)Nc3ccccc32)c2ccccc2n1
→ ?	?
> CC(C)C(=O)N1CCC1(C)C(=O)NCc1ccc(C(C)(C)C)cc1 (stereo not given)
→ i	-1%
> CSc1ccc(CN2C(=O)NC3(CCCCC3)C2=O)cc1
→ i	-8%
> COc1ccc(C(=O)Nc2cc3c4c(c2)C(C)C(=O)N4CCC3)cc1OC (stereo not given)
→ i	-5%
> COc1ccc([N+](=O)[O-])cc1N(CC(O)CN1CCCCC1)S(=O)(=O)c1ccc(C)cc1 (stereo not given)
→ i	-22%
> CCOC(=O)C1CCN(C(=O)c2cc3c(=O)n4ccccc4nc3n2C)CC1
→ i	-2%
> C=CCN(C(=O)c1ccccc1)C1CCS(=O)(=O)C1 (stereo not given)
→ i	0%
> CN(Cc1ccccc1)S(=O)(=O)c1ccc2[nH]c(=O)oc2c1
→ ?	-10%
> CS(=O)(=O)N(CC(=O)N1CCN(Cc2ccccc2)CC1)c1ccccc1F
→ i	-22%
> N#Cc1ccccc1NC(=O)Nc1ccc(Cl)cc1
→ .	-21%
> Cc1ncc([N+](=O)[O-])n1CCOC(=O)NC(NCc1ccccc1Cl)C(Cl)(Cl)Cl (stereo not given)
→ i	-17%
> COc1ccc(-c2ccc3c(c2)S(=O)(=O)c2cccc(C(=O)O)c2C3=O)cc1OC
→ i	-1%
> C[C@]12c3[nH]c4ccccc4c3CCN1C(=O)C(CC(=O)NCCc1ccccn1)C[C@@H]2C(=O)N1CCCCC1 (stereo not given in full)
→ i	-10%
> CC(C)CC(=O)NCc1ccc(F)cc1
→ -11%	-9%
> COc1ccc(OC)c(-c2csc(N(CC3CCCO3)C(=O)Cc3ccccc3)n2)c1 (stereo not given)
→ -6%	-11%
> CC1SC2(CN3CCC2CC3)NC1=O (stereo not given)
→ -9%	-7%
> Cc1ccc(CSC2=NCCN2C(=O)C(C)Oc2ccccc2)cc1 (stereo not given)
→ -17%	-4%
> O=C(Nc1ccc(O)c2c(=O)cc(-c3ccccc3Cl)oc12)c1ccc(Cl)c(Cl)c1
→ -6%	-25%
> CCOC(=O)/C(C#N)=C/Nc1cc(C(=O)OCC)cc2c(OC)c(OC)ccc12
→ ?	-27%
> CSc1ccccc1C(=O)N1CCOCC1
→ .	-17%
> CCOc1cc(C(=O)NCC(=O)N2CCC3(CC2)NCCc2[nH]cnc23)cc(OCC)c1OCC
→ -23%	-1%
> COc1ccc(S(=O)(=O)N2CCC(C(=O)N3CCOCC3)CC2)cc1
→ .	-10%
> CCN(CC)CCC(c1ccc(N(C)C)cc1)c1c(O)cc(OC)cc1OC (stereo not given)
→ ?	-7%
> Cc1sc2ncnc(N(C)C3CCCCC3)c2c1C
→ -9%	-10%
> COc1cccc(N2CCN(C(=O)c3ccc4c(Cl)c5c(nc4c3)CCCC5)CC2)c1
→ 2%	7%
> CN(c1ccc(C(=O)Nc2cccnc2)cc1)S(=O)(=O)c1ccccc1
→ -10%	-9%
> CC(=O)N1CCc2c(sc3c2c(=O)n(CCc2ccccc2)c(=O)n3Cc2ccc(F)cc2)C1
→ -12%	-1%
> CC(C)CN(C(=O)CN(C)C(=O)c1ccco1)c1c(N)n(CC(C)C)c(=O)[nH]c1=O
→ -18%	-13%
> C=CC[C@H](CC(=O)NCCO)C(=O)N[C@H](C)COC(=O)[C@@H](CC=C)Cc1ccc(F)cc1
→ i	-14%
> Cc1ccc(S(=O)(=O)c2cc(Nc3ccccc3)ccc2O)cc1
→ ?	-8%
> COC(=O)c1ccccc1NC(=O)C1(S(=O)(=O)c2ccc(Cl)cc2)CC1
→ -14%	5%
> CCn1cc(C(=O)N[C@@H](CCSC)C(=O)NCCOC)c(=O)c2cc3c(cc21)OCO3
→ -11%	-7%
> C=CCn1c(O)c(Cc2ccc(OCC)cc2)c(=O)[nH]c1=O
→ i	-7%

Other entries follow:
Order of results: Vaccinia mCherry	Vaccinia Venus
> N#C/C(=C\c1ccc(O)c([N+](=O)[O-])c1)c1nc2ccccc2s1
→ -15%	17%
> CC(Sc1ccccc1)C(=O)Nc1ccc(S(=O)(=O)N2CCOCC2)cc1 (stereo not given)
→ -16%	-6%
> COc1ccccc1C(=O)NNC(=O)C12CC3CC(CC(C3)C1)C2
→ i	0%
> CC(C)[C@H](NC(=O)Nc1ccccc1F)C(=O)O
→ -11%[1.46 µM]	-10%
> COc1ccc(CN(C(=O)c2ccccc2F)C2CCS(=O)(=O)C2)cc1 (stereo not given)
→ -17%	-15%
> CCCN(CCC)CCNS(=O)(=O)c1ccc2c(c1)CCN2C(=O)C1CCC1
→ -11%	-11%
> CCSc1nnc(-c2cc(Br)ccc2N)c(=O)[nH]1
→ -7%	-9%
> COc1cc(OC)cc(C(=O)N[C@H](C(=O)Nc2cc(C)cc(C)c2)C(C)C)c1
→ 8%	7%
> CSc1ncc(C(=O)Nc2ccc(Cl)cc2C(=O)c2ccccc2)c(C)n1
→ 6%	-9%
> CCN(CC)S(=O)(=O)c1ccc2c(c1)N(CC(=O)Nc1ccc(OC)cc1)C(=O)CS2
→ -11%	-14%
> COc1ccccc1C(=O)OCC(=O)Nc1ccc(N2CCCCC2)cc1
→ -3%	-11%
> COc1ccccc1NC(=O)CCN1CCN(C)CC1
→ i	-8%
> COc1ccccc1C(=O)NC(=O)COc1ccc(Cl)cc1Cl
→ -13%	-2%
> C/C(=N\OCc1ccc(C#N)cc1)c1cc2ccccc2o1
→ -5%	9%
> O=C(O)C1C2CCC(C2)C1C(=O)Nc1ccc(Cl)c(Cl)c1 (stereo not given)
→ -12%	-14%
> C/C(=N\NC(=O)c1ccco1)c1ccc(NC(=O)c2ccccc2)cc1
→ -5%	-8%
> COc1ccc(NS(=O)(=O)c2cc3c(cc2C)N(C(C)=O)CCO3)cc1OC
→ -11%	-16%
> Cc1ccccc1-c1nc(CS(=O)(=O)CC(=O)NCCCN2CCN(C)CC2)c(C)o1
→ -26%&-8%	-20%&-7%
> CCN(C(=O)c1cc2c(s1)-c1ccccc1OC2)c1cc(OC)ccc1OC
→ -12%	-4%
> O=C(NCCc1csc(-c2ccccc2)n1)c1ccc(Br)o1
→ 4%	-6%
> C[C@H](NC(=O)c1[nH]cnc1C(=O)Nc1ccccc1)C(=O)OC(C)(C)C
→ -16%	?
> COC(=O)Cc1ccc(NC(=S)NNC(=O)C2CC2)cc1
→ -7%	-17%
> CC(Oc1ccc(Br)cc1)C(=O)N1CCN(c2ccccn2)CC1 (stereo not given)
→ i	-14%
> CCCn1c(C(C)NC(C)=O)nc2ccccc21 (stereo not given)
→ i	-6%
> O=C1CCN(Cc2ccc(O)cc2)CCN1[C@H](CO)c1ccccc1
→ i	-9%&-17%
> CCc1ccc(NC(=O)CC2C(=O)NCCN2C(=O)c2ccc(F)cc2)cc1 (stereo not given)
→ -12%&-17%	-16%&-10%
> O=C1NC(=O)C2C1C1(Cl)C(Cl)=C(Cl)C2(Cl)C1(Cl)Cl (stereo not given)
→ i	-12%
> Cc1ccc(NC(=O)NC(=O)N(C(C)C)S(C)(=O)=O)nc1
→ -1%	-9%
> O=C(c1c[nH]c2ccc(S(=O)(=O)N3CCOCC3)cc2c1=O)N1CCN(c2ccccn2)CC1
→ .	-4%
> CC(C)NC(=O)C1(C#N)C=C1c1ccccc1 (stereo not given)
→ 3%	-1%

Continued (2 carried over from the part before).
Order of results: Vaccinia mCherry	Vaccinia Venus
> O=C(c1c[nH]c2ccc(S(=O)(=O)N3CCOCC3)cc2c1=O)N1CCN(c2ccccn2)CC1
→ .	-4%
> CC(C)NC(=O)C1(C#N)C=C1c1ccccc1 (stereo not given)
→ 3%	-1%
> COCCNC(=O)C(c1ccc(F)cc1)N(CCOC)C(=O)CCC(=O)Nc1ccccn1 (stereo not given)
→ -36%	-4%
> Cc1ccc(SCC(=O)O/N=C(\N)c2cccc([N+](=O)[O-])c2)cc1
→ -18%	-6%
> COc1ccccc1Nc1ncc2c(n1)CCN(Cc1cc(F)cc(F)c1)C2
→ -15%	-6%
> O=C(c1ccc(Cl)cc1)C(Cn1cncn1)C(Sc1ccccc1)c1ccccc1 (stereo not given)
→ -20%	-19%
> CC(C)(C)NC(=O)COC(=O)CCC(=O)c1cccs1
→ i	3%
> Cc1oc2ncn(CC(C)C)c(=O)c2c1C(=O)NC(C)c1ccccc1 (stereo not given)
→ -29%	-18%
> CC1CC(=O)c2c(cc3c(-c4c(O)cc(O)c5c(O)c6c(cc45)OC(C)CC6=O)c(O)cc(O)c3c2O)O1 (stereo not given)
→ 10µM*	14µM*
> CC1CN(C2CCN(C(=O)COc3ccccc3)CC2)CC(C)O1 (stereo not given)
→ -21%	-11%
> CC(=O)c1ccc(NC(=O)c2sc3nc4n(c(=O)c3c2C)CCCCC4)cc1
→ -22%	-16%
> CCCCC(=O)Nc1ccc(NC(=S)NC(=O)CC)cc1OC
→ -12%	-13%
> CC(C)C(NC(=O)c1ccc2c(c1)OCO2)C(=O)N/N=C\c1ccco1 (stereo not given)
→ 13%	16%
> Cc1c(C(=O)NNC(=O)c2ccncc2)oc2ccc(Br)cc12
→ i	-14%
> Cc1ccc(-n2c(=O)cc(N3CC(C)OC(C)C3)[nH]c2=O)cc1 (stereo not given)
→ i	-12%
> Cc1ccc(NC(=O)CN(c2ccc(Cl)cc2)S(=O)(=O)c2cc([N+](=O)[O-])ccc2Cl)cc1
→ ?	?
> COc1cccc(C2C(C#N)=C(N)OC(C(C)(C)C)=C2C#N)c1 (stereo not given)
→ -16%	-9%
> CCOC(=O)c1c(NC(=O)Cc2ccccc2)sc2c1CC(C)(C)NC2(C)C
→ ?	-25%
> O=C(Nc1cccc2nsnc12)c1cccnc1Cl
→ -27%	-8%

As entered above:
Vaccinia Venus result of `CCOC(=O)C1CCN(C(=O)c2cc3c(=O)n4ccccc4nc3n2C)CC1` → -2%
Vaccinia Venus result of `Cc1ccc(-n2c(=O)cc(N3CC(C)OC(C)C3)[nH]c2=O)cc1` (stereo not given) → -12%

5 compounds drawn at random from those above:
Order of results: Vaccinia mCherry	Vaccinia Venus
> Nc1cccc(OCCCCCOc2cccc(N)c2)c1
→ -23%	-28%
> Cc1nc(SCc2ccc([N+](=O)[O-])cc2)n[nH]1
→ -26%	-13%
> O=C(c1cccc(S(=O)(=O)N2CCc3ccccc3C2)c1)N1CCN(c2ccccc2)CC1
→ -9%	-28%
> COc1ccc([N+](=O)[O-])cc1N(CC(O)CN1CCCCC1)S(=O)(=O)c1ccc(C)cc1 (stereo not given)
→ i	-22%
> COCCNC(=O)C(c1ccc(F)cc1)N(CCOC)C(=O)CCC(=O)Nc1ccccn1 (stereo not given)
→ -36%	-4%
